Tg IFNy HTS: T. gondii growth inhibition with IFN-gamma, primary screen, cell-based; Toxoplasma gondii growth in IFN-gamma-treated host cells; hits give low values; reference of the scale not given here; activity change, negative = inhibition, %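 (about 20 µM by stock and volumes)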; hit rate 3.8% among 69,000;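 active means below -70%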;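 further: host cells are HeLa cells infected with Toxoplasma gondii; parasite growth read as luciferase light; one replicate is shown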
An asterisk follows results filed as active; i = inactive; & = joins results of further samples.

SMILES,Tg IFNy HTS
CS(=O)(=O)N1CCc2c(-c3cnc(N)nc3)nc(N3CCOCC3)nc21,-5.7
COc1cc(N2CCC(N(C)C)CC2)ccc1Nc1ncc(Cl)c(Nc2ccccc2P(C)(C)=O)n1,-73.7*
Cc1cnc(NC(=O)Nc2cc(Br)c(C)cc2OC[C@@H]2CNCCO2)cn1,-68.5
CNC(=O)c1ccccc1Nc1cc(Nc2ccc(N3CCOCC3)cc2OC)ncc1C(F)(F)F,-5.9
Cc1oc(C2CCN(C(=O)Nc3ccccc3F)CC2)nc1C(=O)N1CCCC1,-7.8
OCC(O)CN1CCN(c2ccccc2)CC1 (centres undefined),-5.0&13.0&15.4
COc1ccc([C@@H]2CNC(=O)C2)cc1OC1CCCC1,-12.2
Cc1ccc(C(=O)Nc2ccc(CN3CCN(C)CC3)c(C(F)(F)F)c2)cc1C#Cc1cnc2[nH]ncc2c1,-79.6*
CN1CCN(c2cc3c(cc2F)c(=O)c(C(=O)O)cn3-c2ccc(F)cc2)CC1,3.4
CN=C(NC#N)Nc1ccc(C2=NNC(=O)CC2C)cc1 (centres undefined),14.0&28.5
Cc1cc(-c2cc(O)ccc2Cl)cc2nnc(Nc3ccc(OCCN4CCCC4)cc3)nc12,-91.3*
O=c1[nH]c(-c2ccc(C(F)(F)F)cc2)nc2c1CSCC2,-4.9&29.1
Cc1nc(Nc2ccccc2)sc1-c1ccncc1,-26.3
COC(=O)c1cc(S(C)(=O)=O)ccc1OC,15.6
Cc1oc(-c2ccc(NC(=O)CC3CCCCC3)cc2)nc1Cn1cccn1,-9.0
Cc1nc(C)c(-c2ccc(C3CCC(CC(=O)O)CC3)cc2)nc1C(N)=O (centres undefined),22.6
CCCCOC(=O)c1ccc(N)cc1,46.7&62.0
O=C(N[C@H]1CCN(C(=O)c2cc(C(F)(F)F)cc(C(F)(F)F)c2)[C@H](Cc2ccc(Cl)cc2)C1)c1ccnc2ccccc12,-8.7
C#C[C@]1(OC(C)=O)CCC2C3CCC4=C/C(=N/O)CCC4C3CC[C@@]21CC (some centres undefined),-77.8*
CCC[C@H](N[C@H]1CCc2cc(F)cc(F)c2C1)C(=O)Nc1cn(C(C)(C)CNCC(C)(C)C)cn1,-46.3
CCCc1cc(C)[nH]c(=O)c1CNC(=O)c1cc(-c2ccc(N3CCN(C(C)C)CC3)nc2)cc2c1cnn2C(C)C,-50.2
Cc1nc(C#Cc2ccnc(Cl)c2)c(C)n1-c1ccc(F)cc1,-31.2
CNC(=O)c1ccc(C)c(-n2c(C)cc(OCc3ccc(F)cc3F)c(Br)c2=O)c1,31.7
CCN1CC(CCN2CCOCC2)C(c2ccccc2)(c2ccccc2)C1=O (centres undefined),22.0
Cc1cccc(C)c1NC(=O)c1cc(S(N)(=O)=O)c(Cl)cc1O,10.4
CC(=O)c1cnc2ccc(-c3cc(Cl)c(O)c(Cl)c3)nc2c1NC1CCC(CN(C)C)CC1 (centres undefined),-75.6*
C/C=C(/C)C(=O)O[C@H]1C(C)=C[C@]23C(=O)[C@@H](C=C(CO)[C@@H](O)[C@]12O)[C@H]1[C@@H](C[C@H]3C)C1(C)C,-26.3
Cc1cc(-c2ncc(CC(=O)Nc3ccc(-c4cnccn4)cn3)cc2C)ccn1,-27.9
CN1CCC(=C2c3ccccc3CC(=O)c3sccc32)CC1,-16.2&15.1&17.7
CN1CCN(c2c(F)cc3c(=O)c(C(=O)O)cn4c3c2SCC4)CC1,-4.4
O=C(NCC(=O)N1CC[C@H](NC2CCC(O)(c3ccc(-c4ncccn4)cn3)CC2)C1)c1cccc(C(F)(F)F)c1 (some centres undefined),3.3
O=c1cc(N2CCOCC2)nc2c3ccccc3ccn12,-2.1

Ordered by count of non-hydrogen atoms (rising): part of the list above
SMILES,Tg IFNy HTS
CCCCOC(=O)c1ccc(N)cc1,46.7&62.0
COC(=O)c1cc(S(C)(=O)=O)ccc1OC,15.6
Cc1nc(Nc2ccccc2)sc1-c1ccncc1,-26.3
O=c1[nH]c(-c2ccc(C(F)(F)F)cc2)nc2c1CSCC2,-4.9&29.1
CN1CCC(=C2c3ccccc3CC(=O)c3sccc32)CC1,-16.2&15.1&17.7
Cc1nc(C#Cc2ccnc(Cl)c2)c(C)n1-c1ccc(F)cc1,-31.2
CN1CCN(c2c(F)cc3c(=O)c(C(=O)O)cn4c3c2SCC4)CC1,-4.4
Cc1nc(C)c(-c2ccc(C3CCC(CC(=O)O)CC3)cc2)nc1C(N)=O (centres undefined),22.6
CCN1CC(CCN2CCOCC2)C(c2ccccc2)(c2ccccc2)C1=O (centres undefined),22.0
CN1CCN(c2cc3c(cc2F)c(=O)c(C(=O)O)cn3-c2ccc(F)cc2)CC1,3.4
CNC(=O)c1ccc(C)c(-n2c(C)cc(OCc3ccc(F)cc3F)c(Br)c2=O)c1,31.7
C/C=C(/C)C(=O)O[C@H]1C(C)=C[C@]23C(=O)[C@@H](C=C(CO)[C@@H](O)[C@]12O)[C@H]1[C@@H](C[C@H]3C)C1(C)C,-26.3
CC(=O)c1cnc2ccc(-c3cc(Cl)c(O)c(Cl)c3)nc2c1NC1CCC(CN(C)C)CC1 (centres undefined),-75.6*
Cc1cc(-c2cc(O)ccc2Cl)cc2nnc(Nc3ccc(OCCN4CCCC4)cc3)nc12,-91.3*
CCC[C@H](N[C@H]1CCc2cc(F)cc(F)c2C1)C(=O)Nc1cn(C(C)(C)CNCC(C)(C)C)cn1,-46.3
O=C(NCC(=O)N1CC[C@H](NC2CCC(O)(c3ccc(-c4ncccn4)cn3)CC2)C1)c1cccc(C(F)(F)F)c1 (some centres undefined),3.3
CCCc1cc(C)[nH]c(=O)c1CNC(=O)c1cc(-c2ccc(N3CCN(C(C)C)CC3)nc2)cc2c1cnn2C(C)C,-50.2
O=C(N[C@H]1CCN(C(=O)c2cc(C(F)(F)F)cc(C(F)(F)F)c2)[C@H](Cc2ccc(Cl)cc2)C1)c1ccnc2ccccc12,-8.7

The listing continues.
SMILES,Tg IFNy HTS
O=C(CN1C(=O)C2(CCCC2)NC[C@H]1c1cc(F)cc(F)c1)Nc1ccc2c(c1)C[C@@]1(C2)C(=O)Nc2ncccc21,-2.7
O=C(NCCN1CCOCC1)c1ccc(Cl)cc1,5.2&-12.0
CC1CCc2c(N3CCC(O)CC3)c(F)cc3c(=O)c(C(=O)O)cn1c23 (centres undefined),-2.4
CCOc1ccc(Nc2nc(-c3c(C)nc4ccccn34)cs2)cc1,-69.4
CC1(C)Oc2ccc(C#N)cc2[C@@H](N2CCCC2=O)[C@@H]1O,-3.6&52.4
Cc1cccc(S(=O)(=O)N2CCC(c3nc(C(=O)N4CCCC4)c(C)o3)CC2)c1,-36.8
CC1CCCCN1S(=O)(=O)c1ccc2c(c1)CCC(=O)N2CC(=O)NCc1ccc(F)cc1 (centres undefined),-28.3
Cc1ccc(C(=O)C(C)CN2CCCCC2)cc1 (centres undefined),11.3
CCOC(=O)Nc1ccc2c(c1)N(C(=O)CCN1CCOCC1)c1ccccc1S2,14.2&19.6
CC(C)(C)Sc1c(CC(C)(C)C(=O)O)n(Cc2ccc(Cl)cc2)c2ccc(OCc3ccc4ccccc4n3)cc12,19.3
CN=C(N)NC(=O)Nc1c(C)cccc1C,14.7&-15.9
CCCCC(=O)O[C@]1(C(=O)CO)[C@@H](C)C[C@H]2[C@@H]3CCC4=CC(=O)C=C[C@]4(C)[C@@]3(F)[C@@H](O)C[C@@]21C,-9.6
CN1C(=O)CC(C)(c2ccccc2)C1=O (centres undefined),9.8
Cc1ccsc1/C=C/C1=NCCCN1C,18.5
Cc1ccc(-c2nnc(-c3nc(N4CCCCC4C)c4ccccc4n3)o2)cc1 (centres undefined),i
COc1cc(C(=O)NCCCCCC(=O)O)cc(OC)c1OC,5.5
Cc1noc(-c2ccc(-c3ccc(CC(=O)O)cc3)cc2)c1NC(=O)O[C@H](C)c1ccccc1,-0.1
Cc1cc(C(N)=O)ccc1-n1c(CCC(=O)O)ccc1-c1ccc(-n2ccnc2)cc1,9.2
Cn1cnc2c(F)c(Nc3ccc(Br)cc3F)c(C(=O)NOCCO)cc21,3.0
NC(=O)NC(=O)Cc1ccccc1,8.7&24.0
O=C(Nc1cccc(C(F)(F)F)c1)Nc1cc(S(=O)(=O)NC2CC2)ccc1-c1ccsc1,-59.4
c1ccc2c(Oc3nc(Nc4ccc(N5CCOCC5)cc4)c4ncn(C5CCCCC5)c4n3)cccc2c1,-69.3&43.0
Cc1cc(CN2CCN(c3c(Br)cnc4nc(-c5ccc(N6CCN(C)CC6)cc5)[nH]c34)CC2)no1,-74.3*
Cc1nn(CC(=O)NCc2cc(F)cc(F)c2)c(=O)c2nc(-c3ccccc3)sc12,89.9

Laid out differently: entries from further up
SMILES: Cn1cnc2c(F)c(Nc3ccc(Br)cc3F)c(C(=O)NOCCO)cc21
  Tg IFNy HTS = 3.0

SMILES: NC(=O)NC(=O)Cc1ccccc1
  Tg IFNy HTS = 8.7&24.0

Remaining list, next part:
SMILES,Tg IFNy HTS
O=C(c1cn(Cc2cncn2Cc2ccc(Br)cc2)cc1-c1cccc2ccccc12)N1CCOCC1,-51.0
CCc1cc(-c2n[nH]c(C)c2-c2ccc3c(c2)OCCO3)c(O)cc1O,-21.2
CNC(=O)c1cccc(-c2ccc3c(N4CCOC[C@@H]4C)nc(N4CCOC[C@@H]4C)nc3n2)c1,-21.7
COC(=O)Nc1nc2ccc(C(=O)C3CC3)cc2[nH]1,-69.3
COc1c(O)cc2c(c1O)[C@@H]1O[C@H](CO)[C@@H](O)[C@H](O)[C@H]1OC2=O,21.6
OC[C@H]1O[C@@H](c2ccc(Cl)c(Cc3ccc(O[C@H]4CCOC4)cc3)c2)[C@H](O)[C@@H](O)[C@@H]1O,15.9
CCN(CC)CCOC(=O)C(c1ccccc1)c1ccccc1,22.3&8.0&22.6
CCN(CC)S(=O)(=O)c1ccc(C(=O)O)cc1,18.1&5.4
CCS(=O)(=O)N1CCN(c2ccc(Nc3ncc(C(N)=O)c(NC4CC4)n3)cc2)CC1,-65.0
Cc1ccccc1C(C(=O)NC1CCCCC1)N(C(=O)Cn1ccnc1C)c1cccc(F)c1 (centres undefined),-57.1
CCCc1cc(C(N)=S)ccn1,-7.9&17.2&9.6
Cc1cccc(/C=N/Nc2cc(N3CCOCC3)nc(OCCc3ccccn3)n2)c1,-73.8*
O=C(OC1C[C@@H]2CC3C[C@H](C1)N2CC3=O)c1c[nH]c2ccccc12 (some centres undefined),8.7
CCCc1ncc(C(=O)O)s1,12.6
Cc1ccc(C(=O)N(CCCN)[C@@H](c2oc3cc(Cl)ccc3c(=O)c2Cc2ccccc2)C(C)C)cc1,-68.5
COc1cc2c(cc1OC)CN(CCc1ccc(NC(=O)c3cccc4c(=O)c5cccc(OC)c5[nH]c34)cc1)CC2,-83.9*
CC(C)(C(=O)c1cccnc1)c1cccnc1,15.7

From PubChem

Only part of the results is shown; rates above refer to the full screens.
